Screening data: PubChem, several laboratories
Insulin prom inh – inhibitors of insulin promoter-driven GFP, primary screen, imaging, TRM-6 cells (human fetal islet line), eGFP reporter, cell count. AID 1273, 2008. inhibition, % at 2 µM. reporter expression induced with tamoxifen. hit rate 0.9% among 130,000;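 active = inhibition above the mean plus 3 SD, with well images judged a real hit on visual review, cut at about 60% in these data, passing the limit was not always enough; inconclusive = inhibition over the cutoff but images rejected on review; inactive = inhibition not above the cutoff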
RGS16-Gao HTS – modulators of RGS16 binding to Galphao, primary screen, biochemical, human proteins, multiplexed bead flow cytometry; bead-based flow cytometry RGS16-Galphao binding, fluorescence; actives lie on both sides; binding response (% of control), % at 10 µM; hit rate 0.38% among 220,000;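 active = below 25% or above 175%, edge rows of some plates excepted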;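 note: Galphao activated by GDP with aluminum fluoride before binding; 100% = wells without compound and 0% = beads without RGS; some results beyond the cut were filed as inactive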
Target sequence (O15492 whole entry, looked up): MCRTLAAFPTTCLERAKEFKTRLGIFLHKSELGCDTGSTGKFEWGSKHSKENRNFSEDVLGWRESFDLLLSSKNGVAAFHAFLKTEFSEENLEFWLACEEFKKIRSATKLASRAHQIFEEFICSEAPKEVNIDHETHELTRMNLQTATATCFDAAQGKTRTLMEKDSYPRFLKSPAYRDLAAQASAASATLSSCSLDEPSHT
Target sequence (P09471 whole entry, looked up): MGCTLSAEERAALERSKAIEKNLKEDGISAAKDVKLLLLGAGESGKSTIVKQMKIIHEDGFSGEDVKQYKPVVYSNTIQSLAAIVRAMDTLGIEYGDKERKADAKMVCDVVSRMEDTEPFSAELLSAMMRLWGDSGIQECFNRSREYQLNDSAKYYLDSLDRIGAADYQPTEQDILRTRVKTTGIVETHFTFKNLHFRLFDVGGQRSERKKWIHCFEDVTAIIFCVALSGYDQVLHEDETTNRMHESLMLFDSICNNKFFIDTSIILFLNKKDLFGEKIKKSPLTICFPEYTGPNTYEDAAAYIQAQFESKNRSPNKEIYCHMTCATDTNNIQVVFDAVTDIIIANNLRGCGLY
HSV replic up – enhancers of HSV replication in host cells, fold increase, host cell viability. HSV replication augmentation in cells. maximum fold increase. hit rate 0.005% among 220,000;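 active = peak rise of 1.5-fold or more in the series; inconclusive = self-fluorescent or not available for retest; tested in PC3 cells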;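 note: first round at 10 µM; read as green reporter fluorescence; hits show the peak of a series up to 25 µM; 1 = signal of infected wells without compound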
PKD1 kinase inh – inhibitors of human PKD1 kinase, biochemical, fluorescence polarization. PKD1 kinase fluorescence polarization assay. hit rate 0.056% among 200,000. inhibition, %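 (about 10 µM by stock and volumes)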. AID 797, 2007. Serine/threonine-protein kinase D1 (Homo sapiens), Q15139;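 active = inhibition of 50% or more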;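 note: controls were vehicle for no effect and a reference inhibitor for full effect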
GALR2 agonist – GALR2 receptor agonists, primary screen, cell-based; Galanin receptor type 2 (Homo sapiens), O43603; GALR2-expressing cells, agonist activation read-out; activation, %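 (tested at 5 µM)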; hit rate 0.48% among 140,000;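 active = above mean plus 3 SD of all compounds, about 5% in these data, not always enough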;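 note: 0% = vehicle buffer wells and 100% = reference agonist at full effect; tested in CHO reporter cells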
Target sequence (O43603 whole entry, looked up): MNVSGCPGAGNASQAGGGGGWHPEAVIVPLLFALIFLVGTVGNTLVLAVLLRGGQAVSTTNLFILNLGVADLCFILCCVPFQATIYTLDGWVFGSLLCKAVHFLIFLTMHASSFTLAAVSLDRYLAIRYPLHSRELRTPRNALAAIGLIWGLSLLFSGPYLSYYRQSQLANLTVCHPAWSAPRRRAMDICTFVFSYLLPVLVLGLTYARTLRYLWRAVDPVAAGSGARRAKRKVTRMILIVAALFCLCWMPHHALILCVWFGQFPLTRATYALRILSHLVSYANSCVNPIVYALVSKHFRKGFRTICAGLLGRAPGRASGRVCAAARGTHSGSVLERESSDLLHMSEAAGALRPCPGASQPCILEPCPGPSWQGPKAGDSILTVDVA
Insulin prom inh cell count – further read-out of Insulin prom inh, marked with its call; normalized cell count, %; measured here: cell count, toxicity; reference of the scale not given here;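 cells exposed to compound for 48 h; stained nuclei by imaging scaled within each plate; lower means fewer cells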
HSV replic up primary fold – also measured in HSV replic up; calls as there; fold increase; compound at 10 µM; measured here: primary screen fold increase 10 uM; tested in PC3 cells;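 GFP signal in the first replicate; 1 = infected wells without compound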
* = called active by the depositor; i = inactive; ? = inconclusive; . = not tested or not shown.

structure	PKD1 kinase inh	HSV replic up	HSV replic up primary fold	Insulin prom inh cell count	GALR2 agonist	RGS16-Gao HTS	Insulin prom inh
Cc1onc(-c2ccccc2Cl)c1C(=O)OCC(=O)Nc1cccc(S(=O)(=O)N2CCOCC2)c1	3	i	1	106	.	97	-11
Cc1nn(CCc2nn[nH]n2)c2nc(-c3ccc(C4CCCCC4)cc3)cc(C(F)(F)F)c12	-3	i	0.8	.	.	102	.
N#Cc1nc(COc2ccccc2)oc1N1CCC(Cc2ccccc2)CC1	14	i	0.86	56	-0.6	103	27
Cc1sc2nc3c(C(=O)N4CCN(c5ccccn5)CC4)cccn3c(=O)c2c1C	1	i	1.1	.	-3.1	101	.
CC(C)=CC(=O)Nc1c(C)cc(C)cc1Cl	-9	i	1.1	91	.	100	18
CN(C)C(=O)c1ccc(-n2nc(C(F)(F)F)c3c2CCCC3)cc1	-6	i	0.96	75	1.0	91	3
COc1ccccc1CN1CC(C(=O)NC2CCCCC2)CC1=O (configuration not stated)	-9	i	0.89	99	-1.8	99	-34
COc1ccc(Cl)cc1NC(=O)N(C)Cc1c(C)nn(C)c1C	-7	i	0.91	105	-1.3	102	-32
COc1ccc(C(=O)/C=C/Nc2ccc(S(=O)(=O)Nc3cccc(C(C)=O)c3)cc2)cc1	13	i	1	56	0.3	126	65
CC(=O)c1sc(NC(=O)c2cc3c(C)nn(-c4ccccc4)c3s2)nc1C	-7	i	0.82	88	0.8	101	-31
O=C(CNCC1CCCO1)Nc1ccc([N+](=O)[O-])cc1C(=O)Nc1ccccc1F (configuration not stated)	2	i	0.98	.	.	96	.
Cc1ccc(/C(N)=N/OC(=O)N2CCOCC2)cc1	-1	i	1	.	-2.3	100	.
COc1ccc(N=c2cc(-c3ccc(OC)cc3)oc3ccccc23)cc1	-2	i	0.95	88	-1.2	129	7
O=c1c2ccccc2nc(SCc2ccc([N+](=O)[O-])cc2)n1-c1ccc(Cl)cc1	-6	i	1.1	.	-1.2	105	.
Cc1ccc(C)c(NS(=O)(=O)c2ccc(OCC(=O)NCc3ccco3)cc2)c1	-5	i	1.1	84	0.8	109	69
O=C(O)CN1CCN(Cc2ccccc2F)C1=O	-5	i	1	91	.	101	30
O=C(c1oc(=O)c2ccccc2c1-c1ccccc1)N1CCC(O)CC1	-10	i	1.4	.	-1.6	101	.
COc1ccc(OC)c(Nc2nc(NCCCN(C)C)nc(N)c2[N+](=O)[O-])c1	.	i	0.87	.	.	96	.
O=C(NCCc1ccccc1)c1c(F)c(F)c(F)c(F)c1F	-2	i	0.99	115	-1.4	97	-29
Cc1cc(C(=O)NC(C)C2CCCO2)cs1 (configuration not stated)	-8	i	0.86	181	-2.2	101	38
Cc1ccc(NC(=O)NCC2CCN(Cc3cc(C)ccc3Cl)CC2)c(C)c1	5	i	0.89	.	.	102	.
Cc1ccnc(NC(=O)Nc2ccc(Br)cc2Cl)c1	-5	i	1.1	134	.	106	5
Nc1nonc1-n1nnc(C(=O)N/N=C/c2c(Cl)cccc2Cl)c1CSC1=NCCS1	.	i	0.94	.	.	97	.
Cc1ccc(C(=O)N/C(=C\c2ccc(-c3cc(Cl)ccc3Cl)o2)C(=O)NCc2cccnc2)cc1	-3	.	.	.	-1.3	103	.
C=CCSC1=N/C(=C\c2cc(OCC)c(OC(C)=O)c([N+](=O)[O-])c2)C(=O)S1	1	i	1.1	76	-0.8	137	48
Cc1[nH]c2ccccc2c1CN1CCc2ccccc2C1	-4	i	0.89	183	-0.6	100	6
CC[n+]1c(/C=C/c2c[nH]c3ccccc23)ccc2cc(C)ccc21	-14	.	.	.	.	129	.
CC(=O)Cc1nsc(NC(=O)c2ccco2)n1	3	i	0.8	121	-2.3	105	-16
Cc1sc2ncnc(SCC(=O)c3cccs3)c2c1C	4	i	0.9	73	-1.0	104	0
O=C(COc1cccc2c1CCN(Cc1ccccc1)C2=O)NCc1ccco1	-6	i	0.94	134	-1.1	108	6
COc1cccc(-c2nc(C=O)cs2)c1	2	i	1	92	.	172	-82
COc1cccc2cc(/C(C)=N/Nc3nc(-c4cc(C)ccc4C)cs3)c(=O)oc12	8	i	0.72	70	-1.9	101	19
Cc1ccc(NC(=O)CC2C(=O)OCC3CCCCN32)cc1Cl (configuration not stated)	-1	i	0.97	115	0.3	108	17
O=C(Nc1ccc2c(c1)OCO2)C1CCCCN1S(=O)(=O)c1ccccc1 (configuration not stated)	-5	i	1	112	-0.8	85	9
Oc1ccc(C[C@@H]2CNC(=S)N2CCc2cc(C(F)(F)F)cc(C(F)(F)F)c2)cc1	.	i	1	.	.	88	.
COc1nc2ccccc2c(=O)n1OCC(C)C	11	i	0.93	.	-1.1	98	.
COc1ccc(-c2coc3cc(O)ccc3c2=O)cc1OC	-13	i	0.95	106	-0.1	97	-70
Cn1c(SCC(=O)Nc2nccs2)nnc1-c1ccco1	-4	i	1.1	86	-0.8	105	-117
O=C(c1cc([N+](=O)[O-])cc([N+](=O)[O-])c1)N1CCCc2ccccc21	7	i	1	.	.	111	.
CN(C)C(C)(C)C#CCC(c1ccccc1)c1ccccc1	4	i	0.69	.	-0.8	110	.
O=C(O)c1cc(-c2ccco2)nc2ccccc12	-16	i	0.99	80	-0.9	100	-12
O=C(CCCCCNC(=O)c1ccccc1)N/N=C/c1ccc(F)cc1	-1	i	1	.	.	100	.
CO/N=C/c1cccn1-c1nccc(OC)c1C#N	-11	i	0.88	.	.	97	.
O=C(O)c1cccc(-n2nnnc2SCc2ccccc2Cl)c1	6	i	1.1	.	.	116	.
CC(NCCC(c1ccccc1)c1ccccc1)c1ccccc1 (configuration not stated)	-6	i	0.63	62	-0.3	.	-13
CCn1c(SCc2nc3ccccc3c(=O)[nH]2)nnc1-c1ccncc1	2	i	0.9	84	-0.5	101	-37
CCOC(=O)CC1C(=O)NCCN1c1nc2c(C)cccn2c(=O)c1/C=C1\SC(=S)N(CC(C)C)C1=O (configuration not stated)	.	?	.	.	.	98	.
CCS(=O)(=O)N1CCN(C2CCC(C)CC2)CC1 (configuration not stated)	-6	i	0.96	104	-2.3	99	-28
O=C(CN1C(=O)c2ccccc2C1=O)Nc1cccc2cccnc12	-13	i	0.93	.	-1.0	104	.
CS(=O)(=O)N(CC(=O)NC1CCCCC1)c1cccc(Cl)c1	0	i	1	101	-1.7	106	-6
Cc1c(-n2cccc2C=O)cccc1[N+](=O)[O-]	1	i	0.9	.	.	93	.
CCOC(=O)c1cnc2ccc(C(=O)OC)cc2c1NCCc1ccc(OC)c(OC)c1	-5	i	0.9	124	1.2	114	25
O=C(Nc1ccc(Cl)cc1)N1CCCN(Cc2ccc(F)cc2)C1	3	i	0.74	95	0.3	106	-58
O=C(CN1C(=O)CCC1=O)Nc1nc(-c2cccs2)cs1	-5	i	0.94	80	-1.5	103	40
O=C(c1ccco1)N1CCN(C(=O)c2cnn3cccnc23)CC1	-2	i	0.96	140	-0.4	103	65
Cc1ccc(NC(=O)CCn2c(=O)oc3ccccc32)cc1	-2	i	0.87	.	-3.2	103	.
O=S(=O)(NCc1ccc2c(c1)OCO2)c1cccc2cccnc12	-8	i	1	105	-1.3	97	0
CC1CCc2nn(CC(=O)NCCC3=CCCCC3)cc2C1 (configuration not stated)	-11	i	0.95	.	-1.6	99	.
Cc1cccc(NC(=S)NCCC(c2ccccc2)c2ccccc2)c1	0	i	0.86	187	-0.4	109	-49
COc1ccc2oc(=O)c(C(=O)Nc3cccc(C)c3)cc2c1	-9	i	0.77	.	.	94	.

Other entries
structure	PKD1 kinase inh	HSV replic up	HSV replic up primary fold	Insulin prom inh cell count	GALR2 agonist	RGS16-Gao HTS	Insulin prom inh
COc1ccc(Br)cc1S(=O)(=O)N1CCOCC1	-2	i	1.3	112	-1.9	105	25
CCOC(=O)c1c(C)[nH]c(C(=O)CN2C(=O)NC3(CCCC3)C2=O)c1C	.	i	0.91	.	.	97	.
Cc1c(Cl)c([N+](=O)[O-])nn1Cc1ccc(C(=O)NN)o1	.	i	1.1	.	.	102	.
O=C(CCSc1ccccc1)NC(=O)COC(=O)c1ccc(OC(F)F)cc1	-4	i	1	.	-1.1	92	.
COC1=C(C)C(O)=C(C(=O)/C=C/c2ccccc2)C(=O)C1(C)C	.	i	0.65	.	.	97	.
O=C(COC(=O)c1ccc2c(c1)OCO2)NC1CCS(=O)(=O)C1 (configuration not stated)	-5	i	1.1	99	-2.3	105	30
O=C(/C=C/c1cccc(Cl)c1)NCc1ccccc1	4	i	1.1	155	.	100	-50
c1cn2c(NC3CCCC3)c(-c3ccc(N4CCOCC4)cc3)nc2cn1	-10	i	0.97	.	.	98	.
Cc1ccc2nc(SCC(=O)N3CCN(C(=O)c4ccco4)CC3)[nH]c2c1	-8	i	0.92	128	-0.5	100	29
COc1ccc(OCC(=O)Nc2ncc3c(n2)CC(C)(C)CC3=O)cc1	11	i	0.88	73	-3.0	102	36
CCCc1cc(=O)[nH]c(SCc2cc(=O)oc3c(C)c(C)ccc23)n1	-2	i	0.95	89	-1.2	109	-11
FC(F)(F)c1cccc(N2CCN(CC3CC=CCC3)CC2)c1 (configuration not stated)	-6	.	.	100	-1.4	102	25
CC(=O)Nc1ccc(CN2CCN(CCC(C)C)C(CCO)C2)cc1 (configuration not stated)	-2	i	0.96	.	.	98	.
O=C(Nc1cccc(-c2csc(Nc3ccc(Cl)cc3)n2)c1)c1ccccc1	.	i	0.67	.	.	97	.
COc1ccccc1CNC(=O)C1CC(c2ccccc2[N+](=O)[O-])=NO1 (configuration not stated)	-3	i	0.83	108	-2.6	102	18
COC(=O)c1ccc(OC(=O)CCN2c3ccccc3Sc3ccccc32)cc1	0	i	1.2	.	0.8	132	.
CC(=O)Nc1ccc(S(=O)(=O)NCC(=O)NCCc2ccc(S(N)(=O)=O)cc2)cc1	4	i	1	77	.	93	0
CN(C)C=NC(=O)/C(C#N)=C/c1ccccc1	1	i	1	128	.	116	0
CCOc1ccc(S(=O)(=O)NN=C2CCN(C(C)=O)CC2)cc1	-3	i	1.2	.	.	99	.
Cc1cc(C(=O)N2CCCC(C(=O)c3cccc(C(F)(F)F)c3)C2)nc(C)n1 (configuration not stated)	-2	i	1.1	66	.	104	-71
CCSc1nnc(NC(=O)COc2cccc3ccccc23)s1	-6	i	0.86	52	0.2	99	22
CC(=O)c1c(C)[nH]c(C(=O)Nc2ccccc2N2CCOCC2)c1C	1	i	0.85	.	.	100	.
CSCCC(NC(=O)c1ccc(Cl)cc1)C(=O)OCC(=O)Nc1cc(Cl)ccc1C (configuration not stated)	-5	i	0.97	142	-0.8	101	3
Cc1ccc(C(=O)Nc2sc(C)c(-c3ccccc3)c2C(N)=O)cc1[N+](=O)[O-]	5	i	0.99	73	-2.4	92	0
O=C(Cn1c(=O)oc2cc(S(=O)(=O)N3CCCC3)ccc21)N1CCN(C2CCCCC2)CC1	-10	i	0.92	.	-1.1	103	.
CC1=C(c2ccc(C)cc2)S(=O)(=O)N(CC(=O)O)C1=O	4	i	0.8	.	-0.6	103	.
COc1cc(C(CCN2CCN(c3ccccc3)CC2)c2c(OC)cc(OC)c3ccc(=O)oc23)cc(OC)c1OC (configuration not stated)	.	i	0.88	.	.	104	.
CC(C)C[C@H](NC(=O)c1[nH]cnc1C(=O)N[C@H](C)c1ccccc1)C(=O)OC(C)(C)C	-1	i	0.77	.	.	104	.
Nc1n[nH]c2ccccc12	-1	i	0.96	126	.	104	56
CCCC(=O)c1ccc(-c2ccccc2)cc1	5	i	0.96	138	-0.3	102	27
CN1CCN(NC(=O)c2cc(-c3cccc(Cl)c3)nc3ccccc23)CC1	2	i	0.74	134	.	93	36

Profiles as entered above:
Cc1ccc(C(=O)Nc2sc(C)c(-c3ccccc3)c2C(N)=O)cc1[N+](=O)[O-] as listed: PKD1 kinase inh: 5; HSV replic up: i; HSV replic up primary fold: 0.99; Insulin prom inh cell count: 73; GALR2 agonist: -2.4; RGS16-Gao HTS: 92; Insulin prom inh: 0
CCCC(=O)c1ccc(-c2ccccc2)cc1 as listed: PKD1 kinase inh: 5; HSV replic up: i; HSV replic up primary fold: 0.96; Insulin prom inh cell count: 138; GALR2 agonist: -0.3; RGS16-Gao HTS: 102; Insulin prom inh: 27
